CSC inhib = cancer stem cell viability inhibitors, primary screen, luminescence. cancer stem cell-like cells viability. inhibition, % at 7.5 µM. actives 1.1% (n = 300,000);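 active = mean at 75% or more and at least half the replicates too; inconclusive = mean and replicates disagree; tested in HMLE shEcad cells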;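 also: 0% = median of negative and 100% = median of positive control wells; the first replicate is given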
MT1-MMP act inh = blockers of MT1-MMP proenzyme processing, primary screen, HT1080 RFP-PRO-GFP cells, GFP/RFP fluorescence. Matrix metalloproteinase-14 (Homo sapiens), P50281. actives 0.061% (n = 360,000). GFP/RFP ratio fluorescence, overnight; percent of plate control window, DMSO zero. GFP/RFP ratio change, % at 20 µM;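 active = GFP/RFP ratio change of at least 30% with cell ATP level not reduced by more than half and red fluorescence within 50% of control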; also: strong numbers were not always called active
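Test system: HT1080 cells expressing an RFP-PRO-GFP fluorescent reporter construct / Compound dosing: single-point 20 µM compound, 1% DMSO / Schedule: cells overnight before dosing, compound overnight, 37 °C, 5% CO2 / Evaluation: GFP/RFP fluorescence ratio / Control set: DMSO and RFP-L50D-GFP cell wells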
eIF4H FP inh = human eIF4H binding inhibitors, primary screen, translation initiation inhibitor project, biochemical, uHTS, fluorescence polarization. inhibition, % at 35 µM. AID 2012, 2009. actives 0.94% (n = 290,000). eIF4H fluorescence polarization binding assay. Eukaryotic translation initiation factor 4H (Homo sapiens), Q15056;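 active = 50% or more with normal probe brightness, or confirmed in later tests; inconclusive = above 50% with abnormal brightness, or retests that disagree; inactive = below 50% or failed in later tests; about a fifth of its hits are not listed in these tables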;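 also: calls also rest on retests at 20 µM and on dose response follow-up; 0% = protein and probe with vehicle and 100% = probe without protein; strong numbers were not always called active; many hits fall short of the cut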
Yeast UUG start = modulators of yeast start codon fidelity, primary screen, whole organism, S. cerevisiae, single point, plate reader. actives 0.13% (n = 350,000). activity score, % at 18.7 µM. S. cerevisiae UUG-firefly luciferase reporter, luminescence/redox ratio;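 active = replicate mean at a twofold rise or more, about +100% in these data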;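 also: firefly luciferase made from a UUG start codon reports start codon fidelity; reporter light over untreated wells divided by growth signal over untreated wells; some hits fall short of that in this replicate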
PABP FP inh = PABP poly(A) RNA binding inhibitors, primary screen, biochemical, fluorescence polarization, uHTS; Polyadenylate-binding protein 1 (Homo sapiens), P11940; inhibition, % at 35 µM; actives 1% (n = 290,000);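 active = 50% or more with normal probe brightness, or confirmed in later tests; inconclusive = above 50% with abnormal brightness, or retests that disagree; inactive = below 50% or failed in later tests; about a fifth of its hits are not listed in these tables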;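 also: calls also rest on retests at 20 µM and on dose response follow-up; controls were probe without protein and protein plus probe with vehicle; some compounds called inactive have numbers as strong as hits; many hits fall short of the cut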
Target sequence (P11940 whole entry, looked up): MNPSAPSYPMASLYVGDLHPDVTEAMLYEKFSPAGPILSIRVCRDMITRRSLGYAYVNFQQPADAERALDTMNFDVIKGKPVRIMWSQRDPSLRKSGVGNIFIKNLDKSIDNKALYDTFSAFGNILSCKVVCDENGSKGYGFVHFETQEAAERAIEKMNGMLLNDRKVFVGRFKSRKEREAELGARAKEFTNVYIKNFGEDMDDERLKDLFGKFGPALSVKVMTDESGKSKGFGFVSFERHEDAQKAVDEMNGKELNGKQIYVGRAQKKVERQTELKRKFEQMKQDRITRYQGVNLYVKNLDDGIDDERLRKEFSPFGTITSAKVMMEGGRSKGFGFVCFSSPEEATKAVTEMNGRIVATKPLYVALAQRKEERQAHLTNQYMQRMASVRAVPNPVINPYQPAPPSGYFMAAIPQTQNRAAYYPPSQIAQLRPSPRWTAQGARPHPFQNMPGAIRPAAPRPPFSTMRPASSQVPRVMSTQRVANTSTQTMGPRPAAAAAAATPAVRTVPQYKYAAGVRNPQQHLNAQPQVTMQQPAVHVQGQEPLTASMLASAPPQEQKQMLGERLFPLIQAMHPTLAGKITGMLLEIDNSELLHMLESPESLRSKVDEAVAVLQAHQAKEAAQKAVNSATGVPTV
Rce1 inh = yeast Rce1p protease inhibitors, primary screen, biochemical, fluorescence, cell-free homogeneous. calls only. CAAX prenyl protease 2 (Saccharomyces cerevisiae (strain ATCC 204508 / S288c)), Q03530. AID 2563, 2010. actives 0.27% (n = 290,000). yeast membranes, quenched prenylated peptide cleavage fluorescence;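 active = fall in fluorescence gain of 50% or more versus controls, with final raw signal at or below 3038400; inconclusive = same 50% fall but final raw signal above 3038400; inactive = fall in fluorescence gain under 50%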;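 also: plate controls were neutral control wells for no effect and wells lacking membranes for full effect; tested at 10 µM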
Target sequence (Q03530 whole entry, looked up): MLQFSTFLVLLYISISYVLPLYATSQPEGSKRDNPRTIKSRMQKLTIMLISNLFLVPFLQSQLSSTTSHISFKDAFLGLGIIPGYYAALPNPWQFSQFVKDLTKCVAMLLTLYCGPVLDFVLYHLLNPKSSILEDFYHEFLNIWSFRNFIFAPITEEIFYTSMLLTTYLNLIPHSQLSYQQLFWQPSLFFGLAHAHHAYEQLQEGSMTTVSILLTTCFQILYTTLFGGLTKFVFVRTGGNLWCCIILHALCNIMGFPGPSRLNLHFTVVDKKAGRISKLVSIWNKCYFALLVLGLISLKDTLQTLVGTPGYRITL
Env fusion inh = inhibitors of HIV-1 Env-driven cell-cell fusion, primary screen, HeLa-JRFL effector, CEM21 target cells, luciferase | inhibition, % at 12.3 µM | actives 1.1% (n = 360,000);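 active = mean replicate inhibition score of at least 50 and every replicate individually at or above 50; inconclusive = only one of the two criteria met; inactive = mean below 50 and not all replicates reaching 50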;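 also: 0% = plate neutral controls and 100% = maraviroc near 300 nM; one replicate is shown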
eIF4H FP inh retest = recorded beside eIF4H FP inh, whose call it bears; inhibition, %; compound at 20 µM; confirmation average;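 mean of two retest wells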
PABP FP inh retest = also measured in PABP FP inh; calls as there; inhibition, %; compound at 20 µM; confirmation repeats;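 mean of two retest wells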
MT1-MMP act inh RFP = recorded beside MT1-MMP act inh, whose call it bears; RFP signal change, %; measured here: RFP expression control read;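 0 = vehicle wells; hits needed this value within 50% of zero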
Starred values were filed as active, the others as inactive; i = inactive; u = inconclusive; x = no result given; & = joins results of further samples; [ ] = remark or other dose. A portion of the library. The share of hits here may be higher or lower than overall.

SMILES	CSC inhib	MT1-MMP act inh	MT1-MMP act inh RFP	eIF4H FP inh	Yeast UUG start	PABP FP inh	Rce1 inh	Env fusion inh	others
Cc1cn(S(=O)(=O)c2ccc(Cl)cc2)c(C)n1	-3	0	4	4	x	-8	i	-5
C=CCN1c2ccccc2[C@]23C[C@@H](C(=O)OC)N(C(=O)c4cc(C)oc4C)C2=NC(C(=O)OC)=C(C(=O)OC)[C@H]13	-2	x	x	9	x	2	i	x
Cc1cccc(-n2ncc3c(Nc4ccc(F)cc4)ncnc32)c1	-4	-4	-7	2	-16	-7	i	-16
Cc1ccc(OCc2cc(C(=O)NCc3cnn(-c4cccc(F)c4)c3)no2)cn1	1	2	-4	-5	-1	-6	i	1
CC(C)C1N(C(N)=S)N=CC1(C)C (stereo not given)	25	1	4	-12	-3	-1	i	-1
Fc1ccc(-c2nnc3sc(C4COc5ccccc5O4)nn23)cc1 (stereo not given)	0	0	4	23	-9	0	i	-12
O=C(Cc1cccc2ccccc12)N/N=C/C=C/c1cccc([N+](=O)[O-])c1	26	2	-3	6	x	0	i	x
CCc1nc2ccc(C(=O)N3CCC(O)(Cc4ccccc4)CC3)cn2c1N(C)C(=O)Cc1ccccc1	x	3	4	x	-13	x	x	6
Cc1[nH]c2ccccc2c1CCN(Cc1cccnc1)C(=S)Nc1cccc(F)c1	4	-1	-2	-11	-8	7	i	0
COc1ccc(C23NCCN2C(=O)c2ccccc23)cc1 (stereo not given)	0	1	3	-2	10	4	i	14
CCOC(=O)/C(=N\Nc1cc(Cl)ccc1Cl)N1CC(C)OC(C)C1 (stereo not given)	27	-6	-3	-4	x	7	i	18
COc1ccc2[nH]c(=O)c(CN(C(=O)C3CCCO3)c3ccc(C)cc3)cc2c1 (stereo not given)	24	2	0	-3	2	4	i	x
O=C(C[C@H]1C[C@@H]2c3cc(NC(=O)Nc4ccccc4)ccc3O[C@@H]2[C@@H](CO)O1)NCC1CC1	x	0	1	x	-9	x	x	-14
C=CCn1c(SCc2ccccc2)nc2c1c(=O)[nH]c(=O)n2C	0	0	-6	-1	14	-2	i	-2
Cc1ccc(C(=O)OCC(=O)Nc2ccc(N(C)C)cc2)cc1NC(=O)c1ccco1	-10	9	0	-11	13	-3	x	-18
COc1ccc(C2CC(=O)Oc3cc(C)c(Cl)c(C)c32)cc1 (stereo not given)	x	2	2	x	-1	x	x	14
Cc1ccc(OCc2ccc(C(=O)NCC3CCCO3)cc2)cc1 (stereo not given)	-4	-2	-1	3	x	-3	i	4
CCc1ccc(N2C(=O)C3C(C2=O)N2CCCN2C3c2ccccc2)cc1 (stereo not given)	-11	0	-2	-6	-20	-2	i	7
CC(C)(C)c1ccccc1NC(=S)NC1CCCCC1	6	0	-2	4	-32	0	i	1
COc1ccc([C@H]2CC(=O)C=C(c3ccccc3Oc3ccccc3)C2)cc1	41	-4	-5	x	-15	x	x	4
Cc1ccc(C(=O)N(C)CCOc2ccccc2)cc1S(=O)(=O)N1CCOCC1	2	0	0	x	0	x	x	x
c1ccc(Oc2cccc(NC3=NCCC3)c2)cc1	5	-5	-2	-2	-20	3	i	x
COc1ccc(NC(=O)c2cc(S(=O)(=O)N3CCOCC3)ccc2N2CCOCC2)cc1	-2	-4	-2	-4	-19	6	i	7
COC(=O)c1cc(=O)n(-c2ccc(C(F)(F)F)cc2)[nH]1	3	-1	6	-2	2	7	i	10
CCn1cc(C(=O)NCc2ccccc2OC)c(=O)c2ccc(C)nc21	-6	x	x	-5	x	-2	i	x

Entries from the list above that contain an NH in an aromatic ring:
SMILES	CSC inhib	MT1-MMP act inh	MT1-MMP act inh RFP	eIF4H FP inh	Yeast UUG start	PABP FP inh	Rce1 inh	Env fusion inh	others
Cc1[nH]c2ccccc2c1CCN(Cc1cccnc1)C(=S)Nc1cccc(F)c1	4	-1	-2	-11	-8	7	i	0
COc1ccc2[nH]c(=O)c(CN(C(=O)C3CCCO3)c3ccc(C)cc3)cc2c1 (stereo not given)	24	2	0	-3	2	4	i	x
C=CCn1c(SCc2ccccc2)nc2c1c(=O)[nH]c(=O)n2C	0	0	-6	-1	14	-2	i	-2
COC(=O)c1cc(=O)n(-c2ccc(C(F)(F)F)cc2)[nH]1	3	-1	6	-2	2	7	i	10

Continued.
SMILES	CSC inhib	MT1-MMP act inh	MT1-MMP act inh RFP	eIF4H FP inh	Yeast UUG start	PABP FP inh	Rce1 inh	Env fusion inh	others
C=CCN(C(=O)c1csnn1)C(C(=O)NC1CCCCC1)c1ccccc1 (stereo not given)	-1	-1	4	1	-12	3	i	10
CC(=O)N(C)c1nc(-c2ccc(Cl)cc2)cs1	x	8	3	-8	-18	2	i	x
Cc1c(CN2CCC(n3nccc3NC(=O)CCc3ccccc3)CC2)cnn1C	-14	-2	2	-3	-21	1	i	-5
CCn1c(=O)c2cc(C(=O)NCC(OC)OC)sc2c2ccccc21	6	6	5	-3	2	-16	i	16
COc1ccc(S(=O)(=O)N2CCC(C(=O)N3CCN(c4ccccc4OC)CC3)CC2)cc1	-17	1	-1	-7	8	0	i	x
Cc1ccc(NC(=O)C2CCN(S(=O)(=O)c3c(C)noc3/C=C/N(C)C)CC2)cc1	-20	0	1	-7	-38	-4	i	27
CC(C)(C)NS(=O)(=O)c1cc2c3c(c1)CCN3C(=O)CC2	-5	2	2	5	6	19	i	3
O=C(NC(=S)NCC1CCCO1)c1ccccc1Br (stereo not given)	14	4	4	5	x	5	i	x
ON1C(c2ccc(Cl)cc2Cl)N(O)[C@H]2CCCC[C@H]21 (stereo not given in full)	4	2	4	4	-13	4	i	x
COc1ccc(S(=O)(=O)N2CCCCC2)cc1NC(=O)Cn1c(=O)cnc2ccccc21	-8	4	1	2	1	11	i	8
CC(C)NC(=O)C(c1ccc(F)cc1)N(Cc1ccco1)C(=O)CCC(=O)Nc1ccccn1 (stereo not given)	-11	-2	-2	38	-9	-5	i	12
CC(SCCc1ccccn1)C(=O)O (stereo not given)	-17	1	4	4	-13	-2	x	-178
Cc1onc(-c2ccccc2Cl)c1C(=O)N1CCN(c2cccc(Cl)c2)CC1	56	1	-18	-9	-5	1	i	-83
COc1ccc(F)cc1S(=O)(=O)N1CCN(Cc2ccc3c(c2)OCO3)CC1	-5	-5	-7	1	-2	-9	i	x
O=C(c1ccco1)c1nc2c(n1O)CCCCC2	-3	-4	1	-6	10	6	i	x
CN1C(C)(C)CC(=NOC(=O)c2ccccc2)CC1(C)C	8	1	5	-3	4	-2	i	-113
O=C(CCNS(=O)(=O)c1ccccc1C(F)(F)F)Nc1ccncc1	-7	1	3	x	-12	x	x	x
Cc1sc2nc(SCC(=O)Nc3cccc(C(=O)O)c3)[nH]c(=O)c2c1C	x	-2	1	x	0	x	x	2
COc1ccc(/C=N/N(C)C2=NS(=O)(=O)c3ccccc32)cc1OC	1	3	2	0	-13	25	i	1
Cc1sc2c(c1C)CN(Cc1ccncc1)CN2C(=O)c1ccco1	-5	-36	0	-4	3	0	i	x
CC(=O)Nc1cc2oc3ccccc3c2cc1[N+](=O)[O-]	x	0	1	x	-17	x	x	-9
CCOc1cc(CN2CCSCC2)ccc1O	-18	4	6	-2	-16	8	i	-11
COc1cccc(CSc2nc(N)cc(N)n2)c1	-10	2	1	-6	-12	6	i	-24
O=C(COC(=O)/C=C/c1cc(Br)ccc1F)NC1CC1	-12	3	1	x	-11	x	x	-11
CC(=O)Oc1c(C(=O)c2nnc(C)o2)c(=O)n(Cc2ccccc2)c2ccccc12	19	-12	-2	0	23	12	i	-22
SMILES	CSC inhib	MT1-MMP act inh	MT1-MMP act inh RFP	eIF4H FP inh	Yeast UUG start	PABP FP inh	Rce1 inh	Env fusion inh	others
Cc1nnc(SCC(=O)N2CCN(S(=O)(=O)c3ccccc3)CC2)[nH]c1=O	-13	2	4	6	-11	8	x	x
Cc1ccc(-c2nc(CSCC(=O)NCCCN3CCOCC3)c(C)o2)cc1	-17	5	3	-15	-9	-8	i	-4
CCCS(=O)(=O)N1CCCC(C(=O)NCC(OC)OC)C1 (stereo not given)	-13	7	3	-4	x	33	i	10
CN(C)/C=C(\C#N)C(=O)N/N=C/c1ccc(Cl)cc1	-11	4	2	1	x	-5	i	-6
OC(c1ccc(F)cc1)C(CN1CCOCC1)c1ccccc1 (stereo not given)	-12	1	-1	-5	-13	5	i	-10
O=C(CCN1CCN2CCCC2C1)N1c2ccccc2Sc2ccc(Cl)cc21 (stereo not given)	13	-5	0	-4	12	-5	i	13
Cc1ccc(C)c(C(=O)COC(=O)CN2C(=O)C3C4CCC(C4)C3C2=O)c1 (stereo not given)	2	-3	-1	-7	-3	2	i	11
CCC(C)NCCOc1cc(C)cc(C)c1C (stereo not given)	7	2	2	5	x	4	i	7
C[C@H](CO)N1C[C@H](C)[C@@H](CN(C)S(C)(=O)=O)Oc2ccc(NC(=O)CCC(F)(F)F)cc2C1=O	-14	-6	1	x	-12&-8	x	x	-15[16.7 µM]
Cc1nc2ccccc2c2oc(C(=O)NCC3COc4ccccc4O3)cc12 (stereo not given)	6	-3	-28	0	-13	-4	i	18
C=CCOc1ccccc1/C=c1\sc2nc(=O)c(C)nn2c1=O	0	-5	1	69*	-15	-3	i	x	eIF4H FP inh retest=78*;PABP FP inh retest=35
COC(=O)C1CCN(C(=O)Cc2ccc(OC)c(OC)c2)CC1	5	-1	0	5	-8	9	i	12
C[C@H](CO)N1C[C@H](C)[C@@H](CN(C)Cc2ccncc2)Oc2ncc(Br)cc2C1=O	x	0	2	x	-5&-13	x	x	-15
CCn1c(CSc2nc3ccccc3[nH]2)n[nH]c1=S	x	6	2	14	-23	11	i	x
COC(=O)c1c(=O)n(O)c2ccc(OC)cc2[n+]1[O-]	-3	-61	4	u	x	u	i	x
Cn1c(CSCc2ccc(Cl)c(Cl)c2)nnc1SCC(=O)Nc1nccs1	0	-10	-18	-2	-13	-6	i	22
COC(=O)C1=C(C)NC2=C(C(=O)CCC2)C1c1cn(Cc2ccc(Cl)cc2Cl)nc1-c1ccccc1 (stereo not given)	8	-1	-8	-1	1	5	i	110*
O=C1CC(C(=O)N2CCOCC2)C2(CCCCC2)O1 (stereo not given)	-6	1	3	0	-23	12	i	x
COc1ccc(Cn2c(=O)c3[nH]cnc3n(-c3ccc(C)cc3)c2=O)cc1	4	1	3	0	-11	6	i	7
O=C(Nc1ccc(F)cc1)c1ccc(COc2ccccc2)cc1	2	1	4	-6	-7	-9	i	-6
CCOC(=O)C1=CN(Cc2cccc(F)c2)S(=O)(=O)N(CC)C1c1ccc(Br)cc1F (stereo not given)	x	-18	-25	x	-15	x	x	13
Nc1nonc1NN=C1CCCCC1	9	0	2	8	x	2	i	0
CCn1c(OC)nc2c1c(=O)n(C)c(=O)n2C	6	-6	-3	4	x	5	i	1
CCN(CC)C(=O)c1ccc(COc2ccccc2Cl)cc1	16	1	-1	11	3	11	i	-42
COc1ccc(C(=O)C2CCCN(C(=O)c3noc4c3CCCC4)C2)cc1F (stereo not given)	-12	1	0	-9	0	-2	i	24
O=C(NC(=S)N1CCCC1)c1ccccc1	-7	-2	0	-12	-22	-11	x	5
